# Source: PubChem BioAssay
# HIV TAR-Tat – HIV-1 TAR-Tat binding disruption | HIV-1 TAR RNA, Tat peptide displacement FRET; hits give high values | z-score (no concentration beside the values) | 0.6% of 100,000 active | AID 1259389;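 further: score is relative to mean and SD of negative controls; some compounds called inactive have numbers as strong as hits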
# CDC25B CDK2 inh – human CDC25B-CDK2/CyclinA binding inhibition | P30305+P24941 | HTRF CDC25B-CDK2/CyclinA binding, anti-His/anti-Flag; hits give high values | z-score (concentration not given with the values) | 0.72% of 94,000 active;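 further: score is relative to mean and SD of negative controls; strong numbers were not always called active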
# * marks the source's active call; other numbers are inactive results; · = not tested or not shown; & = joins results of further samples.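 How the source made its calls: active means z-score from 3 up in half or more of its runs; inactive means the rest.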
# The line under a structure holds: HIV TAR-Tat	CDC25B CDK2 inh
CSc1ccc(CCN2CNc3c(c(=O)n(C)c(=O)n3C)C2)cc1
→ -0.66	-1.1
CC(C)c1ccc(NS(=O)(=O)c2ccc(N3CCCCS3(=O)=O)cc2)cc1
→ 2.2	·
COc1ccc(O)c(C2=NN3C(C2)c2ccccc2OC3c2ccccc2)c1 (stereo unspecified)
→ -2.3	-1.4
CNC(=O)c1c(NC(=O)c2ccc(S(=O)(=O)N3CCOCC3)cc2)sc2c1CCC2
→ 1.1	·
Cn1c2ccccc2c2nnc(SCC(=O)O)nc21
→ -0.26	1.1
O=C1c2cccc3cccc(c23)C(=O)N1CCN1CCNCC1
→ ·	1.8
Cc1ccc2nc3c(cc2c1)CCN3C(=O)c1ccc(Br)cc1
→ -0.13	-1.5
CC(C)NC(=O)Nc1cc2c(cc1N1CCCCC1)n(C)c(=O)n2C
→ 2.2	-2.7
CCOc1cc(C2C(C(=O)OC)=C(C)NC3=C2C(=O)CC(C)(C)C3)cc(Br)c1O (stereo unspecified)
→ 0.2	0.82
CCOC(=O)CC(=O)CSc1cc(C)c(Cl)cc1Cl
→ ·	-2.6
CCCCCC1CC(CC(O)CO)C(=O)O1 (stereo unspecified)
→ ·	-0.4
O=C(O)c1cccc(NS(=O)(=O)c2cccc(S(=O)(=O)c3ccc(Br)cc3)c2)c1
→ ·	-0.88
COc1ccc(OC)c(N2C(=O)CCC2(C)C(=O)NC2CCCC2)c1 (stereo unspecified)
→ 0.85	-1.3
Cc1cc(S(=O)(=O)n2ccc(-c3cc(Cl)sc3Cl)n2)cc(C)c1F
→ ·	-0.76
Cn1c(=O)n(C)c2cc(NC3=C(C(=O)Nc4ccc(F)cc4)S(=O)(=O)c4ccccc43)ccc21
→ 1.7	·
Cc1cc(C)c(NS(=O)(=O)c2ccc3c(c2)CC(C)N3C(=O)C2CC2)c(C)c1 (stereo unspecified)
→ -0.11	·
Cc1ccc(-c2nnn(-c3ccc(C)c(Cl)c3)n2)cc1
→ -0.75	-1
CC(C)(C)n1nc2c(c1NC(=O)c1ccc(C(=O)c3ccccc3)cc1)CSC2
→ ·	-0.55
COc1cc(/C=c2\sc3nc4cc(C)c(C)cc4n3c2=O)c(Br)cc1OCC(=O)O
→ ·	-2.9
CCn1cc(CCCC(=O)NCc2cccs2)c2ccccc21
→ 2.2	·
COc1cc(/C=C2\SC(=S)N(CCS(=O)(=O)O)C2=O)ccc1O
→ ·	-5
CCCNC1(c2ccccc2)SSSSSSC1=S (stereo unspecified)
→ ·	-0.83
CCc1nnc(NC(=O)CSc2nc(C3CC3)nc3c2c(=O)n(C)c(=O)n3C)s1
→ 0.66	·
Cn1nc(-c2ccc(F)cc2)nc2c(=O)n(C)c(=O)nc1-2
→ -4.6	1.3
COCCNC(=O)c1nn(C)c2c1CS(=O)(=O)c1ccccc1-2
→ 1.7	-1.6
Cc1cc(=O)oc2c(O)c(O)ccc12
→ 0.22	·
O=C(c1ccccc1)c1cc(F)c(N2CCOCC2)cc1Cl
→ 2.7	-1.6
O=C(CSC1=NS(=O)(=O)c2ccccc2N1)c1ccc(F)cc1
→ 1.6	·
O=C(C1CC1)N1CCCc2cc(NS(=O)(=O)c3ccc(F)cc3)ccc21
→ 1.9	·
O=C(O)c1ccccc1-c1ccccc1C(=O)Nc1nc(-c2ccccc2)cs1
→ ·	-2.9
O=C(CSc1nnc(-c2ccncc2)n1Cc1ccccc1)N1CCCc2ccccc21
→ ·	0.93
COc1cccc(N2C(=O)C3C(C2=O)C2(C)c4ccccc4C3(C)c3ccccc32)c1 (stereo unspecified)
→ 25	-0.19
CC(C)CCn1c(C2CC(=O)N(c3ccc(Cl)cc3)C2)nc2ccccc21 (stereo unspecified)
→ 1.2	-1.5
COC(=O)c1sccc1NC(=O)c1ccc2c(c1)OCCO2
→ 1	·
O=C(CSc1nnc2sc3ccccc3n12)c1cccs1
→ ·	-1.1
O=C(NCc1ccco1)c1cc(-c2cccnc2)nc2ccc(Cl)cc12
→ -0.11	·
CC(C)CCNC(=O)c1cc2c(=O)n3ccccc3nc2s1
→ ·	-0.77
COc1ccc2c(c1)CC/C2=N/OC(=O)c1cc(OC)c(OC)c(OC)c1
→ ·	0.2
CC(=O)N1c2ccccc2NC2=C(C(=O)CC(C)(C)C2)C1c1ccc(C)cc1 (stereo unspecified)
→ 2.9	·
COc1ccc(OC)c(S(=O)(=O)Nc2ccc3[nH]c(=O)oc3c2)c1
→ 0.32	·
Cn1nc(C(=O)N2CCCC2)c2c1-c1ccccc1SC2
→ 0.09	-0.91
CC1CNc2c(cccc2S(=O)(=O)N[C@@H](CCCN=C(N)N)C(=O)N2CC[C@@H](C)C[C@@H]2C(=O)O)C1 (stereo partly specified)
→ 1.7&1.2	·
CN(C)CCCN(C(=O)c1ccc2c(c1)OCCO2)c1nc2ccccc2s1
→ 0.17	·
COc1cccc(Nc2nc(Nc3ccc(Cl)cc3)c3cnn(C)c3n2)c1
→ -1.9	·
Fc1ccc(-n2ncc3c(N4CCOCC4)ncnc32)cc1
→ -0.48	·
CCCN(CCC)S(=O)(=O)c1ccc(C(=O)ON=C2CCCCC2)cc1
→ ·	0.1
CCC(C)N1CC(C(=O)O)CC1=O (stereo unspecified)
→ 0.27	·
CCOC(=O)c1sc(=S)n(-c2cc(C)cc(C)c2)c1N
→ -0.03	·
O=C(O)c1ccc(-n2cnnn2)cc1
→ ·	-0.3
O=C(COCc1cc(-c2ccco2)on1)Nc1ccccc1Cl
→ -2	·
CCCCN(C)Cc1c(C)[nH]c2ccc(OCC)cc2c1=O
→ 0.34	-0.19
O=C(NCc1ccccc1)Nc1nc2c(s1)CCCCC2
→ -0.38	·
COc1ccc(S(=O)(=O)N2CCN(c3nc4ccccc4nc3-n3nc(C)cc3C)CC2)cc1
→ 2	-2.1
CC(C)c1ccc(C2/C(=C(\O)c3ccc(F)cc3)C(=O)C(=O)N2CCCN(C)C)cc1 (stereo unspecified)
→ 2.3	-3.4
O=C1CN(Cc2ccc(Cl)cc2)S(=O)(=O)c2ccccc2N1Cc1ccccc1
→ 0.09	·
COc1cc(CN2CCc3nc(N4CCOCC4)ncc3C2)ccc1OC(C)C
→ 0.6	·
c1ccc(CC2CCN(c3ccc4nncn4n3)CC2)cc1
→ 0.44	-1.1
O=C(NCc1cccnc1)c1ccc(Cn2c(SCc3ccc(F)cc3)nc3ccncc32)cc1
→ 1.9	-1.9
Cc1cc(C)n(-c2cc(NC3CCCC3)ncn2)n1
→ 1.8	·
Cc1nc2c(-c3ccccc3)c(C)nn2c(C)c1CCC(=O)O
→ 2	-1.9

# A different layout for two compounds above.
> O=C1CN(Cc2ccc(Cl)cc2)S(=O)(=O)c2ccccc2N1Cc1ccccc1
  HIV TAR-Tat: 0.09	CDC25B CDK2 inh: ·
> COc1cc(CN2CCc3nc(N4CCOCC4)ncc3C2)ccc1OC(C)C
  HIV TAR-Tat: 0.6	CDC25B CDK2 inh: ·

# (next part)
# The line under a structure holds: HIV TAR-Tat	CDC25B CDK2 inh
CC(CC(=O)Oc1ccc(C(F)(F)F)cc1)S(=O)(=O)c1ccc(Cl)cc1 (stereo unspecified)
→ ·	0.26
Cc1cc(C)c2oc(C(=O)NCC(c3ccco3)N3CCOCC3)cc(=O)c2c1 (stereo unspecified)
→ -0.89	-1.8
COc1cc(C(=O)Nc2ccc(Cl)cc2)nc2ccc(Cl)cc12
→ 0.71	0.07
CN1C(=O)Cc2cc(S(=O)(=O)CCC(=O)N3CC=C(c4ccccc4)CC3)ccc21
→ -0.41	·
CN1C(=O)C(C)(C)c2cc(S(=O)(=O)N3CCCC(C(=O)NC4CCCCC4)C3)ccc21 (stereo unspecified)
→ 0.26	-1.5
CC1Sc2ccc(S(=O)(=O)N(C)C3CCCCC3)cc2NC1=O (stereo unspecified)
→ 2.1	·
COC(=O)c1sc(N2C(=O)c3oc4ccc(F)cc4c(=O)c3C2c2ccc(F)cc2)nc1C (stereo unspecified)
→ -6.3	-0.15
O=C(OCc1cc(=O)n2c3c(sc2n1)CCCC3)c1cccc(F)c1
→ 1.3	·
OCCCc1nc2ccccc2n1CCCOc1ccc(Cl)cc1
→ 0.07	0.08
CCc1sc(NC(=O)c2sc(C)nc2C)nc1-c1ccc(Br)cc1
→ 1.8	-2
N/C(=N\OS(=O)(=O)c1ccc(Cl)cc1)c1ccc(C(F)(F)F)cc1
→ ·	-1.3
Clc1ccc(Nc2nc(-c3ccncc3)nc3ccccc23)cc1
→ 2.6	-0.31
COCc1nn2c(=O)c(NC(=O)c3ccc(F)cc3)cnc2s1
→ 0.31	-0.2
O=C(NCC(c1cccs1)S(=O)(=O)c1ccc(Cl)cc1)C1CC1 (stereo unspecified)
→ 1.6	·
O=C1Nc2ccccc2S(=O)(=O)N1Cc1ccccc1F
→ 0.68	·
CCOC(=O)c1c(C)oc2ncnc(N3CCc4ccccc4C3)c12
→ -0.36	·
O=C(O)c1ccccc1SCc1cc(=O)n2nc(-c3ccccc3Cl)sc2n1
→ 3.5	-2.3
CCNS(=O)(=O)c1ccc(-c2cc(C(=O)OCC)no2)s1
→ 0.07	·
Cc1nnc(C)c2c(C)n(C(c3ccccc3)c3ccccc3)c(C)c12
→ -5.2	-2.2
CCCc1nn2cc(-c3cccc(OC)c3)nc2s1
→ 0.28	-0.58
O=C(CP(=O)(c1ccccc1)c1ccccc1)N/N=C/c1cc(Br)cc(Br)c1O
→ ·	-2.6
Cc1ccc(C2/C(=C(\O)c3ccc(Cl)cc3)C(=O)C(=O)N2CCCn2ccnc2)cc1 (stereo unspecified)
→ 0.03	-0.71
CNC(=O)c1cc2c(n(-c3ccccc3)c1=O)CC(C)(C)CC2=O
→ ·	-0.95
Cn1c(=O)[nH]c(=O)c2c1nc1n(-c3ccccc3)c(-c3ccccc3)cn21
→ 2	-1.2
CCOC(=O)c1c(C)[nH]c(C)c1S(=O)(=O)NC1CCC(C)CC1 (stereo unspecified)
→ 0.83	·
CC1Cc2cc(S(=O)(=O)N3CCCC3)ccc2N1C(=O)C1CCC1 (stereo unspecified)
→ -1.3	·
CN(C)CCn1c2c(c(SCC(=O)Nc3nccs3)nc1=O)CCC2
→ 0.86	·
Cc1ccc(CN2C(=O)c3oc4ccc(Cl)cc4c(=O)c3C2c2ccc(O)cc2)cc1 (stereo unspecified)
→ 0.85	-0.12
O=C(O)CCC(=O)N1N=C(c2ccccc2)CC1c1ccccc1Cl (stereo unspecified)
→ -0.74	0.91
c1nc(Nc2ccc3c(c2)OCCO3)c2cn[nH]c2n1
→ 1.6	·

# Whole records from above. Order of screens: HIV TAR-Tat | CDC25B CDK2 inh
# Record of Cn1c2ccccc2c2nnc(SCC(=O)O)nc21 : -0.26 | 1.1
# Record of CCc1sc(NC(=O)c2sc(C)nc2C)nc1-c1ccc(Br)cc1 : 1.8 | -2
# Record of O=C(C1CC1)N1CCCc2cc(NS(=O)(=O)c3ccc(F)cc3)ccc21 : 1.9 | ·

# Not a retest: entries from further up.
# The line under a structure holds: HIV TAR-Tat	CDC25B CDK2 inh
CC(CC(=O)Oc1ccc(C(F)(F)F)cc1)S(=O)(=O)c1ccc(Cl)cc1 (stereo unspecified)
→ ·	0.26
Cc1cc(C)c2oc(C(=O)NCC(c3ccco3)N3CCOCC3)cc(=O)c2c1 (stereo unspecified)
→ -0.89	-1.8

# Going on with the list.
# The line under a structure holds: HIV TAR-Tat	CDC25B CDK2 inh
COc1ccc(N2C(=S)N(c3ccccc3)C3CS(=O)(=O)CC32)cc1 (stereo unspecified)
→ ·	1
O=C1C2C3c4ccccc4C(C(=O)O)(c4ccccc43)C2C(=O)N1c1ccccc1Br (stereo unspecified)
→ 0.63	-0.74
CCC(=O)N1c2ccccc2CC1C(=O)NC1CCCC1 (stereo unspecified)
→ 0.86	·
Cc1cc(=O)nc2c3ccccc3n(CC(=O)NC3CCCCC3)n12
→ -0.93	-0.33
CC1CCc2c(sc3nnn(CC(=O)NC4CCCCC4)c(=O)c23)C1 (stereo unspecified)
→ -1.3	0.86
COc1ccc(S(=O)(=O)N(CCS(=O)(=O)N2CCNCC2)C2CCCC2)cc1
→ 0.83	·
O=C(Nc1nonc1-c1ccc(Br)cc1)c1cccs1
→ 0.35	2.1
CSC1=C(C#N)C(c2cccc(Oc3ccccc3)c2)CC(=O)N1 (stereo unspecified)
→ 0.05	-0.3
COc1cccc2c1OC(c1ccccc1)N1N=C(c3ccccc3O)CC21 (stereo unspecified)
→ 1.2	-0.46
CC(C)OC(=O)Cn1nc(C(F)(F)F)c2c1CCCC2
→ 0	-0.5
CCCCc1nn2c(=O)cc(COC(=O)c3ccc(OC)cc3)nc2s1
→ -0.35	·
Cc1ccc(-c2nc3scc(CCNS(=O)(=O)c4ccc(C)c(C)c4)n3n2)cc1
→ 1.6	·
N#CCC(=O)NNC(=S)NCC1CCCO1 (stereo unspecified)
→ ·	-1.1
Cc1cc2n(n1)CCC(=O)N2CCCC(=O)N1CCCCC1
→ 1.5	·
CSc1ncc(-c2ccc(Cl)cc2)[nH]1
→ ·	-1.7
CCN1C(C(=O)OC)=C(OC(=O)COc2ccc(OC)cc2)c2ccccc2S1(=O)=O
→ 0.66	-1.9
Cc1cc(OCC(=O)c2cccc(C(F)(F)F)c2)n2cnnc2n1
→ ·	-0.24
O=S(=O)(NC1CCCCC1)c1ccc(S(=O)(=O)N(Cc2ccccc2F)C2CC2)cc1
→ 1	-0.67
CCc1ccc(S(=O)(=O)Nc2ccc3c(c2)oc(=O)n3C)cc1
→ 0.98	·
FC(F)(F)c1ccnc(-c2ccccc2)n1
→ ·	-3.4
COc1ccc(-c2nnc(SCc3cc(=O)n4nc(C(C)C)sc4n3)o2)cc1
→ -0.36	-1.6
Cc1ccc(C)c(NC(=O)CSC2=NS(=O)(=O)c3ccc(C)cc3N2)c1
→ 2.2	·
S=C(NCC1CC1)N/N=C/c1ccccc1Cl
→ ·	-2.3
O=C(COCc1cc(-c2cccs2)on1)Nc1cc(Cl)ccc1O
→ 0.11	·
CC(=O)NC1C(=O)N(C)c2ccc(Br)cc21 (stereo unspecified)
→ 0.37	-0.05
